Screening data deposited in PubChem BioAssay by Broad Institute.
HepG2 viability: HepG2 cell cytotoxicity, dose response, cytotoxicity control, ATP luminescence, cherry-pick, activator set 2 (AID 1053143); HepG2 viability, CellTiter-Glo ATP luminescence, 72 h; activity change, negative = cytotoxicity, % at the top dose, mostly 26 µM; hits show AC50 in µM; hit rate 3.7% among 3,400;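 active means fitted AC50 at most twice the highest valid dose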;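 further: 0 = neutral control and -100 = positive control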
* = called active by the depositor; [ ] = remark or other dose.

SMILES	HepG2 viability
O=C(NN=C1CCCC1)c1n[nH]c2c1CCCC2	2%
CCCCN(C)S(=O)(=O)c1ccc(C(=O)N=c2sc3cc(NC(C)=O)ccc3n2C)cc1	-12%
CCc1sc(C(=O)Nc2nccs2)cc1C	-5%
Cc1ccc(C2=NN3C(=O)c4ccccc4C3C2)cc1 (stereo not given)	-4%
O=C(NN=Cc1ccc2c(c1)OCO2)c1ccccc1	0%
Cn1cccc1/C=C1\CCc2ccccc2C1=O	-5%
CCOc1ccc(NC(=O)c2csc3c2CCCC3)cc1	-7%
CC(=O)Nc1cccc(OCCCNC(=O)c2ccc(C(C)(C)C)cc2)c1	-23%
O=C(c1ccco1)N1CCN(c2ccc(N3CCCCC3)nn2)CC1	-10%[12 µM]
C=CCc1c(C)nc2cc(-c3ccccc3)[nH]n2c1=O	-7%
Oc1ccc2ccccc2c1C=Nc1ccc(Cl)cn1	-3%
CC1(C)Nc2ccccc2C(=O)N1c1ccc(Br)cc1	3%
COc1ccc2cc3cc(C(=O)N4CCCC(C)C4)oc3nc2c1 (stereo not given)	-14%
Cc1cc(C)n2c(Nc3ccc4c(c3)OCCO4)c(-c3ccccc3)nc2n1	-2%
COC(=O)C(C)N1C(=O)S/C(=C/c2cc(C)n(C(C)C)c2C)C1=O (stereo not given)	17%
Cc1ccc(C)c(OCC(=O)O/N=C(\N)c2ccccn2)c1	22%[12 µM]
O=[N+]([O-])c1ccccc1NCCOc1ccccc1	28%
CCC(C)Sc1ccc(-c2nc3ccc(Cl)cn3c2NCc2ccccc2)cc1 (stereo not given)	-19%
CCCC(=O)Nc1ccc(-c2nc3ncccc3o2)cc1	14%
COC(=O)c1c(NC(=O)c2ccc(C)cc2)csc1C	11%

Next section; the last ten above are carried over.
SMILES	HepG2 viability
Oc1ccc2ccccc2c1C=Nc1ccc(Cl)cn1	-3%
CC1(C)Nc2ccccc2C(=O)N1c1ccc(Br)cc1	3%
COc1ccc2cc3cc(C(=O)N4CCCC(C)C4)oc3nc2c1 (stereo not given)	-14%
Cc1cc(C)n2c(Nc3ccc4c(c3)OCCO4)c(-c3ccccc3)nc2n1	-2%
COC(=O)C(C)N1C(=O)S/C(=C/c2cc(C)n(C(C)C)c2C)C1=O (stereo not given)	17%
Cc1ccc(C)c(OCC(=O)O/N=C(\N)c2ccccn2)c1	22%[12 µM]
O=[N+]([O-])c1ccccc1NCCOc1ccccc1	28%
CCC(C)Sc1ccc(-c2nc3ccc(Cl)cn3c2NCc2ccccc2)cc1 (stereo not given)	-19%
CCCC(=O)Nc1ccc(-c2nc3ncccc3o2)cc1	14%
COC(=O)c1c(NC(=O)c2ccc(C)cc2)csc1C	11%
O=C(OCC(=O)c1ccc(Br)s1)c1ccc(O)cc1	0%
CC(C)NC(=O)C1C(c2ccc(C(F)(F)F)cc2)=Nc2ccccc2N1C(=O)c1ccccc1 (stereo not given)	5%
CCCc1nc2c3ccccc3ccn2c1Cc1ccccc1	-14%
Cc1cccc(Nc2nc3c(s2)CCCC3)c1	23%
O=C(Nc1nnc(SCc2ccc(Cl)cc2)s1)C1CC(=O)N(Cc2ccccc2)C1 (stereo not given)	-9%
CCOc1ccc2oc(C(=O)Nc3cc(C)ccn3)c(C)c2c1	26µM*
Clc1ccccc1Nc1nc2ccccc2o1	-9%[12 µM]
O=C1CCCN1CCC(=O)N1CCCC(CO)(Cc2ccccc2)C1 (stereo not given)	-7%
O=C(Nc1cccc([N+](=O)[O-])c1)c1ccc2c(c1)OCCO2	32%[12 µM]
O=C(CSc1ccccc1)Nc1ccc2c(c1)OCCO2	-20%
CCn1c(SC(C)C(=O)NC2CCCC2)nc2cc(S(N)(=O)=O)ccc21 (stereo not given)	-22%
Clc1ccc(/C=N/Nc2ccccn2)cc1	3%[12 µM]
CCOc1ccc(CCNC(=O)COC(=O)c2cccc(N(C)C)c2)cc1OCC	-18%
CN(C)c1cccc(-c2csc(N3CCC(C(N)=O)CC3)n2)c1	-14%
O=C(Nc1ccc(Br)cc1)Nc1ccccc1Cl	0%
COc1cccc(N=c2oc3ccccc3cc2-c2nc3ccccc3[nH]2)c1	-25%
Nc1ccccc1N=Nc1ccccc1N	-7%
O=C(N/N=C/C(Br)=C\c1ccccc1)c1cccs1	9%
Cc1cccc(NC(=O)c2ccccn2)c1C	6%
O=C(Oc1ccccc1N1CCOCC1)c1sccc1Br	-11%
CCc1ccc(NC(=O)c2cc(CC(C)C)on2)cc1	-12%
Cc1ccc(S(=O)(=O)N2CCN(C(=O)Cn3c(=O)cnc4ccccc43)CC2)c(C)c1	-15%
Nc1ccc(N=Nc2ccccc2O)c(N)c1	-25%
COc1ccccc1NC(=O)NC(=O)c1ccccc1	22%
O=C(c1cc(COc2c(F)cccc2F)on1)N1C[C@H]2CC[C@H]1C2	-2%
c1csc(-c2nc(CN3CCSCC3)cs2)c1	26µM*
O=C1NC(c2ccccc2Cl)=N/C1=C/c1ccco1	-11%
Cc1ccccc1/C=C/c1nc2ccccc2c(=O)[nH]1	-18%
Oc1ccc(N=Nc2ccccc2)cc1	1%
Cc1cc(OCc2cc(C(=O)NCc3cc(C(C)C)no3)no2)cc(C)c1Cl	-9%
Cc1ccc(OCC(=O)Nc2ccccc2[N+](=O)[O-])c(Br)c1	13%
CCOC(=O)C1CCN(C(=O)c2cc3c(ccc4ccccc43)o2)CC1	-1%
COc1ccc(-c2csc(N(Cc3ccco3)C(=O)c3cccs3)n2)cc1	-4%
CCC(=O)n1nc(-c2ccc(Cl)cc2)nc1SC	11%
Cc1cc(C(=O)CN2C(=O)NC3(CCCCC3C)C2=O)c(C)n1Cc1cccs1 (stereo not given)	-19%
O=C(COc1ccc(F)cc1)Nc1ccc2c(c1)OCCO2	-16%
CC(C)Cc1cc(C(=O)Nc2cc(Br)ccc2O)no1	-7%
CCc1ccc(C(=O)COC(=O)c2ccccc2OC)cc1	-6%
CC(C)(C)c1ccc(NC(=O)c2ccc(=O)[nH]n2)cc1	8%
O=C(Nc1nc2cc3c(cc2s1)OCCO3)C1CCCCC1	-13%
CCOC(=O)C1(NC(=O)C2(NC(=O)CN3C(=O)c4ccccc4C3=O)CCCC2)CCCC1	-4%
CCCC(=O)c1ccc(N2CCCCC2)c(F)c1	-1%
Clc1cccc(Cl)c1Cn1nnc(-c2cccs2)n1	-1%
CCOC(=O)c1ccccc1N/C=C/C(=O)c1ccccc1	-5%
COc1ccc(C2CC(c3ccc(OC)c(OC)c3)=NN2S(C)(=O)=O)cc1 (stereo not given)	-3%
Clc1ccccc1OCc1nc(-c2ccccn2)no1	-14%
COC(=O)c1sccc1NC(=O)c1ccc(C)s1	-21%
Cc1nc(NC(=O)c2csc3ccccc23)sc1C	-8%
c1ccc(N=NC2=NN(c3ccccc3)CS2)cc1	3%
Nc1ccc2c(c1)C(=O)c1ccccc1-2	-11%
Other entries
SMILES	HepG2 viability
Cc1cc(/C(N)=N/OC(=O)c2cccc(Cl)c2)no1	-22%
c1ccc(-c2cnnc(-c3ccccn3)n2)cc1	-3%
Nc1nc(SCc2ccccc2)sc1C(=O)N1CCCCC1	6%
O=C1c2ccccc2-c2nc3ccccc3cc21	-17%
O=[N+]([O-])c1ccc(-c2cn3ccccc3n2)cc1	-5%
Cc1ccc2nc(-c3ccc(NC(=O)CSCC(=O)O)cc3)sc2c1	-1%
COc1ccc(-c2nnc(N(C)C(=O)c3cccnc3)s2)cc1	-8%
O=C(Nc1ccc(N2CCCCC2)cc1)c1ccc2c(c1)OCCO2	-17%
CCC1CCc2c(sc(NC(=O)c3ccco3)c2C(N)=O)C1 (stereo not given)	-7%
CC(=O)c1ccc(Nc2ccc(-c3ccccc3C)nn2)cc1	-3%
Oc1ccc(Cl)cc1CNc1nccs1	-22%
O=C(Cc1ccccc1)Nc1ccc2c(c1)OC1(CCCC1)O2	-13%
O=C(c1cc2c(s1)-c1ccccc1OC2)N1CCCC1	1%
Cc1ccc(NC(=O)c2cc3ccccc3cc2O)cc1	-1%
COc1cccc(NC(=O)c2cccc(Cl)c2)c1	-18%[12 µM]
Brc1ccc(-c2noc(-c3ccccc3)n2)o1	-20%
CCc1ccc(C(=O)COC(=O)c2cccnc2Cl)cc1	-18%
COc1ccc2c(c1)CCc1c-2n[nH]c1C(=O)NCCC(C)C	-4%
O=C(Nc1nccs1)c1ccc(-c2ccc(Cl)cc2)o1	5%
COc1ccccc1CN(C)C(=O)C1COc2ccccc2O1 (stereo not given)	-2%

Four of these compounds, set out differently:
> Cc1ccc(NC(=O)c2cc3ccccc3cc2O)cc1
  HepG2 viability = -1%
> COc1cccc(NC(=O)c2cccc(Cl)c2)c1
  HepG2 viability = -18%[12 µM]
> Brc1ccc(-c2noc(-c3ccccc3)n2)o1
  HepG2 viability = -20%
> CCc1ccc(C(=O)COC(=O)c2cccnc2Cl)cc1
  HepG2 viability = -18%

Next records
SMILES	HepG2 viability
Cc1ccc(NC(=O)Nc2ccc(F)c(Cl)c2)cc1	33µM*
O=C(CSc1ncccn1)NC(=O)NCc1ccco1	-13%
Cc1cc2nn(-c3ccccc3)nc2cc1NC(=O)c1cccs1	-11%
Cn1c(SCC(=O)c2ccccc2)nnc1-c1ccccn1	-15%
Cc1ccc(C(=O)NNc2ncnc3ccccc23)cc1	3%
COc1ccccc1N1CCN(/N=C\c2ccc(C)o2)CC1	28%
CC(=O)c1sc(NC(=O)c2oc3ccc(F)cc3c2C)nc1C	-14%
c1ccc(Cc2nnc(-c3ccccc3)o2)cc1	-8%
CC(=O)Nc1cccc(C(=O)OCC(=O)c2ccccc2Cl)c1	-6%
Cc1ccc(C)c(Nc2nc(N)c3ccccc3n2)c1	-25%
O=c1[nH]c(-c2ccccc2)cnc1-c1ccccc1	-21%
CCC(=O)Nc1nc2cc(OC)ccc2s1	0%
Cc1ccc(/C=C/C(=O)Nc2cc(C)on2)cc1	-8%
CC(C)CSc1nnc2c(n1)[nH]c1ccccc12	-24%
O=C(COC(=O)Cn1cnc2ccccc21)Nc1ccc2c(c1)C(=O)c1ccccc1C2=O	-18%
CCOC(=O)N1CCC(Nc2c(NCCCN3CCN(c4ccc(OC)cc4)CC3)c(=O)c2=O)CC1	8%
CSc1ccccc1C(=O)Nc1ccc2c(c1)CCC2	-3%
Cc1ccc(-n2c(COc3ccccc3)nnc2SCC(=O)O)cc1	-21%
O=C1c2ccccc2C(=O)N1N=Cc1ccc2c(c1)OCO2	-23%
Oc1ccc(-c2csc(Nc3ccc4c(c3)OCO4)n2)c(O)c1	-5%
O=c1c2ccccc2nnn1CCc1ccccc1	-18%
Cc1cc(NC(=O)c2sc3ccccc3c2O)no1	-9%
O=C(COc1ccc2c(c1)OCO2)Nc1ccccc1F	-7%
CCn1c(O)c(/C=C2\C=Nc3ccccc32)sc1=O	-29%
CC(C)(O)C#Cc1ccc(C(=O)Nc2ccc3c(c2)OCO3)s1	38%
O=C(Nc1nccs1)c1cc2c(s1)-c1ccccc1OC2	-3%
c1csc(-c2nc(N3CCCCC3)no2)c1	-6%
CCOC(=O)c1c(C)[nH]c2cc(Br)c(O)cc12	-8%
COc1ccc(-c2ccc3c(n2)CCCN3Cc2ccccc2C(F)(F)F)cc1	-17%
O=C(O)c1cccc(-c2csc(C(O)c3ccccc3)n2)c1 (stereo not given)	40%
CCCCSc1nnc2c(n1)[nH]c1ccccc12	-6%
COc1cccc(NC(=O)Nc2ccc3c(c2)OCO3)c1	-9%[12 µM]
O=C(/C=C/c1ccc(F)cc1)NCCC1=CCCCC1	-4%
CCC(=O)Nc1c(C(=O)Nc2ccc3c(c2)OCCO3)oc2ccccc12	-21%
CC(=O)c1cc(F)ccc1OCC(=O)Nc1ccc2c(c1)OCO2	11%
COc1cccc(NC(=O)c2ccc(C(=O)c3ccccc3)o2)c1	-15%
C/C(=N/NC(=O)c1cc(C(C)C)[nH]n1)c1cccs1	-13%
O=C(O)c1cc(O)ccc1-c1ccc(O)cc1	-12%[12 µM]
CCOc1ccc(/C=N/NC(=O)Cn2ccnc2C)cc1	-18%
O=C(Nc1ccc2c(c1)OCCO2)c1ccccc1Cl	-3%
O=C(COC(=O)c1ccccc1F)Nc1ccc2c(c1)OCCO2	2%
COc1ccc2c(c1)CCc1c(C(=O)N3CCCC3)noc1-2	-11%
CCOC(=O)c1sc(=NC(=O)c2ccccc2)n(C)c1C	-6%
C(=C\c1nc(-c2ccncc2)no1)/c1ccccc1	-31%
Nc1nc(N)nc(-c2ccc(Cl)c(Cl)c2)n1	4%
c1ccc(-n2nnc(-c3nccs3)n2)cc1	-26%
CS(=O)(=O)N1CCN(c2ccc(NC(=O)c3ccc(Br)o3)cc2)CC1	-4%
C=CCN(CC(=O)Nc1cccnc1)S(=O)(=O)c1ccc(Cl)cc1	-6%
Cc1cc(C)c(C#N)c(SCC(=O)Nc2ccccc2)n1	-16%[12 µM]
O=C(c1ccc(N2CCOCC2)cc1)c1cccs1	28%

Compounds shown so far with a COOH group:
SMILES	HepG2 viability
Cc1ccc2nc(-c3ccc(NC(=O)CSCC(=O)O)cc3)sc2c1	-1%
Cc1ccc(-n2c(COc3ccccc3)nnc2SCC(=O)O)cc1	-21%
O=C(O)c1cccc(-c2csc(C(O)c3ccccc3)n2)c1 (stereo not given)	40%
O=C(O)c1cc(O)ccc1-c1ccc(O)cc1	-12%[12 µM]

(list continues)
SMILES	HepG2 viability
CC(=O)Nc1cccc(OCC(=O)Nc2ccccc2)c1	-4%
O=C(Nc1ccccc1O)c1csc2c1CCCC2	-8%
CCc1cc2c(=O)c(-c3nc(C)cs3)coc2cc1O	17%
N#Cc1ccccc1N/C=C/C(=O)c1ccc(Cl)cc1	-6%
O=C(C=Cc1ccco1)c1ccc2ccccc2c1	-8%
CC(=O)Oc1ccc(C)cc1-n1nc2ccccc2n1	-12%

Some of the compounds tested, so the mix of outcomes need not match the whole.
